Screening data: PubChem, ICCB-Longwood Screening Facility, Harvard Medical School
Sa growth 42C – inhibitors of Staphylococcus aureus growth at 42 °C. actives 0.53% (n = 170,000). AID 720641. relative growth, % (test concentration not listed). S. aureus RN4220 growth, OD600, 20 h; hits give low values;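 active means growth at 42 °C up to 50% and 20 or more points under that at 30 °C, or under 10% at both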;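 further: 300 nL library stock went into each well; scaled to the means of positive and negative controls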
HCMV NEC inh – cytomegalovirus nuclear egress complex inhibition; AID 1918969; HTRF UL50-UL53 interaction, normalized percent inhibition; inhibition, % (concentration not given with the values); actives 0.15% (n = 190,000);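 active means both replicates at 50% or more, plus weaker picks with an unusually low signal ratio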;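 further: stock transfer was 100 nL into about 20 µL; 0% = negative control wells and 100% = wells with untagged competitor protein; inactives centre near -12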
GIV-Gai inh – GIV-Galpha-i interaction inhibition; P08753; Galpha-i3/FITC-GIV peptide fluorescence polarization, 90 min; hits give low values; scaled: aluminum fluoride 0%, vehicle 100%; percent of control (FP), % (test concentration not listed); actives 0.42% (n = 210,000);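 active means replicate mean at 85% of control or lower, very high polarization wells dropped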;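 further: wells of about 15 µL received 100 nL stock; the first replicate is given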
Target sequence (P08753 whole entry, looked up): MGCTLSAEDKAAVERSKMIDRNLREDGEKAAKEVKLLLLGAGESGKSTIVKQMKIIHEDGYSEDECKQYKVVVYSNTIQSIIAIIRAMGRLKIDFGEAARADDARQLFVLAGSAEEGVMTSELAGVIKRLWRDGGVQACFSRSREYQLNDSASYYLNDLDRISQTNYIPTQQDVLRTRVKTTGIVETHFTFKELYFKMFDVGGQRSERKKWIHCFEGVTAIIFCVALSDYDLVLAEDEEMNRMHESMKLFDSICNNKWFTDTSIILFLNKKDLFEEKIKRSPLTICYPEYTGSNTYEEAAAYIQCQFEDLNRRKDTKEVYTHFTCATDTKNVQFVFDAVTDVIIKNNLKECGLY
Sa growth 42C second temp – second read-out of Sa growth 42C, no call of its own (marks repeat the call); relative growth, %; measured here: growth at 30 °C;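 optical density after 20 h as mean of two plates; 100% = untreated growth and lower means inhibition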
An asterisk follows results filed as active; . = not tested or not shown; & = joins results of further samples.

SMILES	Sa growth 42C	Sa growth 42C second temp	HCMV NEC inh	GIV-Gai inh
CCOC(=O)c1[nH]c2c(c1Cc1ccccc1OC)C(=O)CC(c1ccc(OCC)cc1)C2 (stereo unspecified)	100	106	7	106
C=CCNCC1OCc2ccccc2CO1	86	85	-12	103
Fc1ccccc1CSC1=NCCN1	82	74	8	106
Cc1ccc(S(=O)(=O)N(CC(O)Cn2c3ccccc3c3ccccc32)c2cccc(C(=O)NCCO)c2)cc1 (stereo unspecified)	101	61	-34	107
O=c1cc(O)c2sc(SCc3ccncc3)nc2[nH]1	80	81	18	102
O=C(CCCn1ncn2c(cc3occc32)c1=O)NC1CCCc2ccccc21 (stereo unspecified)	101	90	2	107
CCCN1CCN(CCCNC(=O)Cn2nc(CC)n3c(cc4occc43)c2=O)CC1	84	89	7	110
Cc1nnc(SCC(=O)Nc2ccc(F)cc2)o1	99	96	-44	103
CC(=O)Nc1ccc(NC(=O)C2CCCN2S(=O)(=O)c2cccc3nsnc23)cc1 (stereo unspecified)	101	88	.	104
COc1ccc2nc(Nc3nc(-c4ccccc4)cc(=O)[nH]3)nc(C)c2c1	.	.	1	110
Cc1nc2cc(-c3ccccc3)nn2c(C)c1CCC(=O)N1CCN(c2ccc(F)cc2)CC1	98	87	-30	103
Cc1occc(=O)c1OC(=O)c1ccco1	87	97	-4	.
CCOC(=O)c1cc2c(=O)[nH]ccc2nc1C(F)(F)F	89	83	-27	103
O=C(O)c1ccc2c(c1)-c1nc3ccccc3n1C2=O	85	88	-13	101
O=C(NCC(c1cccs1)N1CCOCC1)c1ccccc1C(=O)NCC(c1cccs1)N1CCOCC1 (stereo unspecified)	92	88	-24	.
Cc1[nH]nc2c1C(c1ccc3c(c1)OCO3)CC(=O)N2 (stereo unspecified)	.	.	21	108
CCN1CCCC1CNc1nc2ccc(C(=O)c3ccccc3)cc2n2cnnc12 (stereo unspecified)	91	98	7	109
O=C(O)c1ccc(S(=O)(=O)c2ccccc2)nc1	.	.	-23	98
COc1nnc(-c2ccc(C)c(S(=O)(=O)NCc3cccnc3)c2)c2ccccc12	90	83	1	104
CCc1ccc(N2C(=O)CC(c3ccc(OC)c(OC)c3)CC2=O)cc1	.	.	17	98
CCN(CC)S(=O)(=O)c1ccc(NC(=O)Nc2ccc(F)cc2)cc1	57	35	-14	111
CCCNc1cc(C)nc2c(-c3ccc(F)cc3)cnn12	.	.	16	99
CCn1cc(C(=O)N2CCOCC2)c(=O)c2cc(S(=O)(=O)N(C)C)ccc21	108	86	-10	105
O=C(O)CNC(=O)C(O)(c1ccccc1)c1ccccc1	104	90	.	103
C=CCN1CCN(C2CCN(S(=O)(=O)c3ccc(OCC)cc3)CC2)C(=O)C1=O	.	.	1	102
COc1cc(OC)cc(-c2nnc(SCC(=O)N3CCc4ccccc43)o2)c1	96	93	-12	106
O=C(CC1SC(=Nc2ccc(OC(F)F)cc2)N(CCN2CCOCC2)C1=O)Nc1ccc(F)cc1F (stereo unspecified)	104	90	-9	.
Cc1ccc(-c2ncc(-c3ccccc3)o2)cc1	83	90	25	.
COc1ccc(CCNC(=O)CCc2cn(Cc3ccc(C)cc3)c3ccccc23)cc1OC	122	92	.	106
CCCCCCC(=O)Nc1ccc2nc3c(=O)[nH]c(=O)[nH]c3nc2c1	.	.	-124	83*
CCc1cc2c(cc3c(=O)[nH]ncn32)s1	91	83	.	109
Cc1ccc(C)c(N2CCN(C(=O)c3cc4c(=O)n(Cc5cccnc5)ccc4nc3C)CC2)c1	106	88	.	105
CCCNC(=O)c1ccc(C(=O)NCCC)cc1	110	103	0	101
Cc1ccc(-c2nc3nc(C)c(CC(=O)N4CCCC4)c(C)n3n2)cc1	.	.	-11	105
CN(Cc1c(F)cccc1Cl)C(=O)COc1ncnc2ccccc12	85	92	-28	.
NC(=O)C1(N2CCCCC2)CCN(C(=O)Nc2ccc(F)cc2)CC1	110	92	-10	100
CCc1ccccc1NC(=O)CCCN1C(=O)C(c2ccccc2)Oc2cccnc21 (stereo unspecified)	.	.	-19	101
C=CCn1c(SCC)nc(O)cc1=O	123	82	-17	98
COc1cc(OC)cc(-c2nnc(SCc3cccc(S(=O)(=O)N(C)C)c3)o2)c1	107	103	4	.
O=C(CN1CCN(Cc2ccccc2)CC1)N/N=C\c1ccccc1	91	86	-30	101
O=C(CCc1nc(-c2ccccc2)no1)OCc1c(Cl)cccc1Cl	102	87	-38	.
O=C(CCN1C(=O)c2ccccc2Sc2ncccc21)Nc1ccc(F)cc1F	100	56	.	100
COc1cc(NS(=O)(=O)c2ccc(NC(=O)CSc3nc4ccccc4s3)cc2)nc(OC)n1	.	.	16	104
CC1CN=C(N(CCc2ccccc2)C(=O)Nc2ccc(Cl)cc2)S1 (stereo unspecified)	85	78	-15	102
CN1CCN(C(=S)C(=O)Nc2ccccc2)CC1	108	101	3	103
O=C(O)Cc1cncc(Br)c1	102	81	-11	106
COc1cccc(NC(=O)Nc2cc(Cl)ccc2OCc2cc(=O)n3c(ncn3C(C)C)n2)c1	.	.	9	101
CC1=NS(=O)(=O)c2cc(S(=O)(=O)CC(=O)Nc3cc(Cl)ccc3C)ccc2N1	.	.	-7	110
O=C(Nc1ccc(N2CCN(c3ccccn3)CC2)cc1C(=O)O)c1ccccc1Cl	.	.	-18	101
COc1cc2c(cc1OC)C(c1cccnc1)N(C(C)=O)CC2 (stereo unspecified)	113	80	-7	98
Cc1ccc(C)c(NC(=O)NCC(c2cccnc2)c2cn(C)c3ccccc23)c1 (stereo unspecified)	.	.	-21	97
Cc1[nH]c(C)c(S(=O)(=O)N2CCC(C(=O)NC3CCC(C)CC3)CC2)c1C(=O)N1CCCCC1 (stereo unspecified)	.	.	-30	105
Cn1c(CNC(=O)c2ccccc2)nnc1SCc1ccccc1	96	80	-14	97
CC(Sc1ncnc2ccccc12)C(=O)Nc1cccc(C(F)(F)F)c1 (stereo unspecified)	115	81	-54	.
Cc1ccccc1CCNC(=O)C1CCN(c2nc3ccccc3nc2C(F)(F)F)CC1	78	97	.	100
O=C1c2oc3ccccc3c(=O)c2C(c2cccnc2)N1c1ccccn1 (stereo unspecified)	.	.	-24	100
CCc1cccc(-n2nnc(-c3nsc(NC(=O)c4ccc(C)cc4)n3)c2C)c1	99	85	.	103
Cn1cnc2c(=O)oc3ccc(S(=O)(=O)N4CCN(c5cccc(Cl)c5)CC4)cc3c21	129	100	.	103
COc1ccc(Cl)cc1NC(=O)c1cn(C2CCCC2)c(=O)c2c1c1ccccc1n2C	102	83	-11	104
COc1ccccc1OCC(=O)NCC1(N(C)C)CCCCC1	96	85	-28	98

Remaining list, next part
SMILES	Sa growth 42C	Sa growth 42C second temp	HCMV NEC inh	GIV-Gai inh
O=c1oc2ccccc2cc1-c1ccn[nH]1	87	93	22	107
Cc1ccc(Cl)cc1N1CCN(C(=O)c2ccc3c(c2)N(Cc2ccccc2)CCS3)CC1	95	87	-35	105
Cc1ccc(Cn2c(C(=O)O)c(CNCCc3cccs3)c3ccc(C)cc32)cc1	104	93	.	105
CCOc1cc(-c2nnc(SCC(=O)NC3CCCC3)nc2-c2ccc(OC)c(OCC)c2)ccc1OC	100	86	.	102
NS(=O)(=O)c1ccccc1Oc1ccc(Cl)cc1Cl	95	96	-13	99
Cc1ccc(NC(=O)Cn2cnc3c2c(=O)n(C)c(=O)n3C)cc1C	100	89	.	105
CSC(=S)NNC1=NCCC1	98	100	-43	101
Cc1c(C(=O)NC2CCCCC2)nnn1-c1ccc2noc(-c3ccc(Br)cc3)c2c1	.	.	11	105
CCOC(=O)c1ccc(NC(=O)C(Cc2ccccc2)N2Cc3ccccc3C2=O)cc1 (stereo unspecified)	100	100	.	105
COc1ccc(CCN2C(=O)N(c3cccc(OC)c3)C(=O)C2CC(=O)Nc2ccccc2)cc1 (stereo unspecified)	97	72	6	109
O=C1c2cccnc2C(O)N1Cc1ccccc1 (stereo unspecified)	111	90	2	105
CC1(C)CC(=O)C=C(Nc2ccc(O)cc2)C1	85	83	-35	102
COc1ccc(N2C(=O)CCS2(=O)=O)cc1S(=O)(=O)NC1CCCC1	.	.	2	101
CCCN1C(=O)c2cc(C(=O)NC3CCCC3)ccc2C1O (stereo unspecified)	99	85	.	96
COc1ccc(C(=O)Nc2cc(C)c(O)c(S(=O)(=O)c3ccc(Cl)cc3)c2C)cc1	91	88	-10	.
CCOc1ccc2c(c1)-c1c(ssc1=S)C(C)(C)N2C(=O)CSc1ncn[nH]1	.	.	-108	105
Cc1ccc2c(=O)cc(C(=O)N(Cc3ccc(C(C)(C)C)cc3)C3CCS(=O)(=O)C3)oc2c1 (stereo unspecified)	92	77	2	106
CC(NC(=O)c1ccco1)C1CCCO1 (stereo unspecified)	88	105	4	109
O=C(O)C1c2ccccc2C(=O)N(C2CCCC2)C1c1cccs1 (stereo unspecified)	107	95	.	100
S=c1nc(-c2ccccc2)n(CC2CCCO2)c2c1CCCC2 (stereo unspecified)	90	86	-20	102
Cc1cc(NC(=O)c2ccc(N3C(=O)CCC3=O)cc2)nc2c1c(=O)oc1ccccc12	0.1*	0.2*	17	102
CC(C)OCCCNC(=O)Cc1ccc(NC(=O)N2CCCCc3ccccc32)cc1	76	93	.	101
CCCNC(=O)C1CCN(C(=O)c2sccc2-n2cccc2)CC1	95	90	.	103
O=c1[nH]cnc2c1c(-c1ccccc1)cn2-c1ccccc1	95	87	-20	104

Shown as a hit in GIV-Gai inh (from the list above):
Structure	Sa growth 42C	Sa growth 42C second temp	GIV-Gai inh
CCCCCCC(=O)Nc1ccc2nc3c(=O)[nH]c(=O)[nH]c3nc2c1	.	.	83*

In a second layout: entries from further up
Screens in order: Sa growth 42C | Sa growth 42C second temp | HCMV NEC inh | GIV-Gai inh
- Cc1ccc2c(=O)cc(C(=O)N(Cc3ccc(C(C)(C)C)cc3)C3CCS(=O)(=O)C3)oc2c1 (stereo unspecified)
    92 | 77 | 2 | 106
- COc1ccc(N2C(=O)CCS2(=O)=O)cc1S(=O)(=O)NC1CCCC1
    . | . | 2 | 101
- O=C(O)C1c2ccccc2C(=O)N(C2CCCC2)C1c1cccs1 (stereo unspecified)
    107 | 95 | . | 100
- CC(C)OCCCNC(=O)Cc1ccc(NC(=O)N2CCCCc3ccccc32)cc1
    76 | 93 | . | 101
- S=c1nc(-c2ccccc2)n(CC2CCCO2)c2c1CCCC2 (stereo unspecified)
    90 | 86 | -20 | 102
- CCCNC(=O)C1CCN(C(=O)c2sccc2-n2cccc2)CC1
    95 | 90 | . | 103
- O=c1[nH]cnc2c1c(-c1ccccc1)cn2-c1ccccc1
    95 | 87 | -20 | 104

The results go on:
SMILES	Sa growth 42C	Sa growth 42C second temp	HCMV NEC inh	GIV-Gai inh
CCOC(=O)c1ccc(CN(Cc2ccc(F)cc2)S(=O)(=O)c2ccc(F)c(C(=O)Nc3cc(Cl)ccc3OC)c2)cc1	103	84	.	103
Cc1ccc(S(=O)(=O)NCCc2csc(-c3cccc(F)c3)n2)cc1	112	95	.	104
CCOC(=O)C1CCCN(CC(O)COC(c2ccccc2)c2ccccc2)C1 (stereo unspecified)	73	92	-25	.
O=C1CC(c2ccccc2)Cc2[nH]c(=O)c(C(=O)NCc3ccccc3)cc21 (stereo unspecified)	.	.	-25	116
CC1CCN(c2nc3c(c(=O)n(C)c(=O)n3C)n2Cc2ccccc2Br)CC1	.	.	-23	108
COc1ccccc1NC(=O)c1sc2nc3n(c(=O)c2c1C)CCCCC3	.	.	3	113
O=C(CCSCc1cccc(Cl)c1)NC1CCCC1	117	89	3	106
CC(C)Cc1ccc(C(=O)O)cc1	110	84	-12	.
Oc1cc(O)c2c(c1)O[C@H](c1ccc(O)c(O)c1)[C@@H](O)C2	.	.	-18&-18&-15&-27	97
COc1ccc(NC(=O)c2oc3ccccc3c2NC(=O)c2cc3ccccc3o2)c(OC)c1	87	86	-14	104
CC(C)(C)CC(=O)NCC(c1ccc2c(c1)OCO2)N1CCOCC1 (stereo unspecified)	98	89	.	103
CCn1cnc(S(=O)(=O)N2CCCC(C(=O)NC3CCC(C)CC3)C2)c1 (stereo unspecified)	.	.	2	101
Cc1nc(-c2ccccc2)sc1C(=O)N1CCCc2ccccc21	82	76	24	101
COc1ccc(-c2nnc(SCc3ccc(Br)cc3)o2)c(OC)c1	.	.	-12	99
Cc1ccc2[nH]c(=O)c3cc(C(=O)N(C)C4CCCCC4)sc3c2c1	87	89	.	103
O=C(CSc1cn(CCNC(=O)c2cccc(C(F)(F)F)c2)c2ccccc12)Nc1ccc2c(c1)OCCO2	100	81	-14	105
CCOC(=O)COc1ccc(C#N)cc1	97	99	-16	108
C=CCn1c(=O)c2ccc(C(=O)NCc3ccc4c(c3)OCO4)cc2n(CC(=O)Nc2cc(C)[nH]n2)c1=O	111	75	-7	104
CCOc1cc(/C=C(\C#N)C(=O)Nc2ccc(OC)cc2)ccc1OCc1cc(=O)n2nc(CC)sc2n1	104	89	-10	104
CC(C)NC(=O)CSc1nccn2nc(-c3ccccc3)cc12	.	.	-24	109
CC1CC(=O)N(Cc2ccccc2)c2ccccc2N1 (stereo unspecified)	.	.	13	104
CN1CCc2c(OCC(=O)N3CCCc4ccccc43)cccc2C1=O	95	83	-5	98
CC(=O)Nc1ccc(CSc2ccccc2)cc1	99	97	9	101
CS(=O)(=O)Nc1ccccc1C(=O)Nc1ccc2c(c1)OCCO2	102	87	-8	99

One compound at a time, from the list above. Screens in order: Sa growth 42C | Sa growth 42C second temp | HCMV NEC inh | GIV-Gai inh
COc1ccc(-c2nnc(SCc3ccc(Br)cc3)o2)c(OC)c1 is entered as . | . | -12 | 99
CS(=O)(=O)Nc1ccccc1C(=O)Nc1ccc2c(c1)OCCO2 is entered as 102 | 87 | -8 | 99
